# Bioassay records from PubChem BioAssay.
# HCMV UL50-53 inh – disrupts HCMV UL50-UL53 complex binding; HTRF UL50-UL53 interaction, normalized percent inhibition; 0.15% of 190,000 active; inhibition, % (no concentration beside the values); AID 1918969;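 active = both replicates at 50% or more, plus weaker picks with an unusually low signal ratio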;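 note: stock transfer was 100 nL into about 20 µL; 0% = negative control wells and 100% = wells with untagged competitor protein; inactives centre near -12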
# Sa growth 42C – S. aureus growth inhibition; S. aureus RN4220 growth, OD600, 20 h, 42 °C; active compounds read low; relative growth, % (concentration not given with the values); 0.53% of 170,000 active; AID 720641;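 active = growth at 42 °C up to 50% and 20 or more points under that at 30 °C, or under 10% at both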;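 note: 300 nL library stock went into each well; scaled to the means of positive and negative controls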
# GIV Gai3 FP – blocks GIV peptide binding to rat Galpha-i3. P08753. Galpha-i3/FITC-GIV peptide fluorescence polarization, 90 min; active compounds read low; scaled: aluminum fluoride 0%, vehicle 100%. percent of control (FP), % (no concentration beside the values). 0.42% of 210,000 active. AID 1224905;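 active = replicate mean at 85% of control or lower, very high polarization wells dropped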;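 note: wells of about 15 µL received 100 nL stock; the first replicate is given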
# Target sequence (P08753 whole entry, looked up): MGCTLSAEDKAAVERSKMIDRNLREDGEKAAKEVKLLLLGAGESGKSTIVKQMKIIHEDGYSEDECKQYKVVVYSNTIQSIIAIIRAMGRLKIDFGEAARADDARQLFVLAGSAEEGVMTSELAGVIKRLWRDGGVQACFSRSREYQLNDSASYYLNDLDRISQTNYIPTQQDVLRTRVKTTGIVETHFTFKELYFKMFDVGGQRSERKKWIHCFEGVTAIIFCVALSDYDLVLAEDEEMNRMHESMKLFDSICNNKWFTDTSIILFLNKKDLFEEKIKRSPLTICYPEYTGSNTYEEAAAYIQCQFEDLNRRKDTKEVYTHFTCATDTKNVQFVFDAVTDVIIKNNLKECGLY
# Sa growth 42C second temp – also measured in Sa growth 42C; calls as there; relative growth, %; measured here: growth at 30 °C;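 optical density after 20 h as mean of two plates; 100% = untreated growth and lower means inhibition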
# Active calls of the source: *; nt = no result given; & = joins results of further samples.
SMILES,HCMV UL50-53 inh,Sa growth 42C,Sa growth 42C second temp,GIV Gai3 FP
COc1ccc(NC(=O)c2nnn(CC(=O)Nc3ccc(C)c(C)c3)c2N)cc1OC,nt,132,100,107
O=C(COc1ccc(F)cc1)NCC(c1ccc(Br)cc1)c1c[nH]c2ccccc12 (stereo not drawn),1,nt,nt,104
Cc1cc(C)cc(-n2ccn3c(CCC(=O)NCCc4ccc(S(N)(=O)=O)cc4)nnc3c2=O)c1,-26,nt,nt,98
Cc1c(C(=O)O)oc2ccc(S(=O)(=O)N3CCCC3)cc12,nt,86,92,101
COc1ccc(S(N)(=O)=O)cc1C(=O)OC1CCCCC1=O (stereo not drawn),-12,109,88,nt
Nc1c(N2CCOCC2)c2ccccc2oc1=O,nt,113,95,100
CS(=O)(=O)N/N=C/c1ccccc1,-16,93,84,101
O=C(Nc1nc2cc3c(cc2s1)OCCO3)c1ccncc1,-32,88,15,nt
O=C(CCc1nc(-c2cccnc2)no1)Nc1ncccc1O,-21,nt,nt,105
CC1(C)O[C@@H]2CC3C4C[C@H](F)C5=CC(=O)CC[C@]5(C)C4[C@@H](O)C[C@]3(C)[C@]2(C(=O)CO)O1 (stereo partly drawn),-55,83,89,nt
O=C1CCN(C(=O)C2CC2)c2ccccc2N1,8,nt,nt,97
CCN(C(=O)CSc1nnc(-c2cccnc2)o1)c1ccccc1,-11,nt,nt,101
CCOC(=O)c1[nH]c2ccc(OC)cc2c1NC(=S)N1CCCC1,-33,88,92,98
COc1ccc(C2CCCCC2)cc1,-9,105,86,nt
CCCc1[nH]n(-c2ccccc2)c(=O)c1C(C)=NCc1ccc(S(N)(=O)=O)cc1,-9,91,78,106
CCCN(CCC)c1cc(C)nc2nc(-c3ccc(C(C)(C)C)cc3)nn12,-4,90,90,104
Cc1ccc(Cl)cc1NS(=O)(=O)c1cc2c3c(c1)CC(=O)N3CCC2,nt,88,90,94
O=C(NC1CCCCC1)N1CCN(c2ccccc2F)CC1,-10,100,93,105
Cn1/c(=N/NC(=O)c2ccc(S(=O)(=O)N3CCCCC3)cc2)sc2ccccc21,6,102,94,nt
CC(NC(=O)OC(C)(C)C)c1nnc(SCC(=O)N(C)C)o1 (stereo not drawn),-6,95,98,104
COc1ccc(/C=C2\CCCC3=C2Nc2ncnn2C3c2ccc(OC)cc2)cc1 (stereo not drawn),nt,80,58,117
CS/C(N)=N/S(=O)(=O)c1ccc(C)cc1,-18,93,93,101
Cn1c(SCCO)nc2c(c1=O)C1(CCCCC1)Cc1ccccc1-2,-16,106,91,102
Cc1ccc(N2C(=O)CN(Cc3cccnc3)[C@H]3CS(=O)(=O)C[C@H]32)cc1,-32,nt,nt,107
C/C(=N/Nc1cccc2cccnc12)C(=O)O,-64,92,74,98

# Next section; the last three above are carried over.
SMILES,HCMV UL50-53 inh,Sa growth 42C,Sa growth 42C second temp,GIV Gai3 FP
Cn1c(SCCO)nc2c(c1=O)C1(CCCCC1)Cc1ccccc1-2,-16,106,91,102
Cc1ccc(N2C(=O)CN(Cc3cccnc3)[C@H]3CS(=O)(=O)C[C@H]32)cc1,-32,nt,nt,107
C/C(=N/Nc1cccc2cccnc12)C(=O)O,-64,92,74,98
CCSc1ncc(CO)n1C,-2,nt,nt,101
Cc1ccc(C)n1-c1cccc(C(=O)O)c1,21,89,79,nt
COC(=O)c1sc2cccc(Cl)c2c1Cl,-35,101,82,nt
C#CCSc1n[nH]c2nc3ccccc3n12,-16,nt,nt,113
CCSc1cc(C)[nH]c(=O)n1,0,95,97,108
Cc1ccc(C)c(NC(=O)C2CCCN(S(=O)(=O)c3ccc4[nH]c(=O)ccc4c3)C2)c1 (stereo not drawn),nt,127,90,103
Cc1nn(-c2nc3ccccc3[nH]2)c(N)c1N=Nc1ccc(S(N)(=O)=O)cc1,-33,81,92,nt
COc1ccc2cc(CCNS(=O)(=O)c3ccc(C)cc3)c(=O)[nH]c2c1,-7,104,90,105
CC1(C)COC(c2ccc(C(C)(C)C)cc2)=N1,-30,106,87,105
CCOc1cc2[nH]c(=O)n(CCCCC(=O)N3CCN(c4ccccc4OC)CC3)c(=O)c2cc1OCC,nt,93,84,108
Cc1sc(-c2noc(C(C)C)n2)cc1S(=O)(=O)N1CCCC(C(=O)NC2CCCCC2)C1 (stereo not drawn),-11,nt,nt,109
C[N+](C)(C)CCN1C(=O)CSC1=O,-12,88,86,nt
CCN=C(Nc1cc(-c2ccccc2)[nH]n1)SC,nt,98,89,105
O=C(c1ccc2cnn(Cc3cccc(Cl)c3)c2c1)N1CCN(c2ccc(F)cc2)CC1,-22,nt,nt,103
Clc1nc(Cl)nc(NCCC2=CCCCC2)n1,18,100,89,105
CC(=O)N1CC2(C)CN(C(C)=O)CC(C)(C1)C2O (stereo not drawn),-6,103,86,96
Cc1cc(C)cc(N2C(=O)c3cc(C)nn3CC2(C)C(=O)NCc2ccc(F)cc2)c1 (stereo not drawn),-5,nt,nt,96
O=C(Oc1cncc(Cl)c1)c1cccs1,-15,98,86,99
CCN1CCN(c2cc(C)c3cc(NC(=O)c4cccc(Cl)c4)ccc3n2)CC1,-26,115,66,106
CN(Cc1ccc(OC(F)F)cc1)C(=O)Cn1cnc2ccccc2c1=O,3,104,97,nt
Cc1sc2ncnc(Oc3cccnc3)c2c1C,-24,112,68,105
Cc1oc2ncnc(N3CCCC(C(=O)Nc4ccccc4Br)C3)c2c1C (stereo not drawn),-11,nt,nt,97
CCOc1ccc(-c2cn(C(=O)Nc3ccccc3)nc2N)cc1,-20,58,87,101
COc1cc2c(=O)n(Cc3ccc(C(=O)NC4CCCC4)cc3)c(=O)n(Cc3ccccc3Cl)c2cc1OC,-17,nt,nt,110
CCCCn1c(C(=O)OC)cc(=O)c2c(C)n(-c3ccccc3)c(=S)nc21,-88,88,76,nt

# (continued)
SMILES,HCMV UL50-53 inh,Sa growth 42C,Sa growth 42C second temp,GIV Gai3 FP
O=C(c1ccc2c(c1)N(Cc1ccc(Cl)cc1)C(=O)c1ccccc1S2(=O)=O)N1CCC(Cc2ccccc2)CC1,-33,93,89,101
CC(Sc1nnc(-c2ccc(Cl)cc2)o1)C(=O)c1ccccc1 (stereo not drawn),-25,63,61,nt
O=C1CCCc2oc3c(c21)CCCC3,-3,102,87,93
Cc1oc(-c2cccc(Cl)c2)nc1CN1CCCC(C(=O)NCc2ccc(Cl)cc2)C1 (stereo not drawn),-16,120,94,103
COc1ccc(CNC(=O)Cn2cc3c(n2)CCCC3)cc1,-16,94,90,104
CCc1cc(C(=O)OC)c(N)s1,0,97,90,102
Cc1cc(N2CCN(C)CC2)nc2ccc(NC(=O)Nc3ccc(F)cc3)cc12,0,101,88,100&108
Cc1sc(-c2noc(C3CCC3)n2)cc1NC(=O)c1cc2ccccc2[nH]1,-10,nt,nt,114
COc1ccc(OC)c(C2C(C(=O)Nc3ccc(C)cc3)=C(C)Nc3ncnn32)c1 (stereo not drawn),-1,nt,nt,113
Cc1cn(CCC(=O)NC2CCN(Cc3ccccc3)CC2)c2ccccc12,-19,112,88,101
COc1cc(OC)cc(C(=O)Nc2ccc(-c3nc4ccccc4s3)cc2C)c1,1,88,90,106
O=C(c1cnc2ccc(F)cc2c1Nc1ccc(F)cc1)N1CCCCC1,-21,nt,nt,97
O=C(Nc1cc(Cl)ccc1C(=O)O)c1ccc(F)cc1,-22,109,74,nt
CC(C)Cn1c(=O)c2c(nc3n2CCS3)n(C)c1=O,-23,nt,nt,109
Cc1noc2ncn(CC(=O)N3CCCCC3)c(=O)c12,-27,nt,nt,107
Cn1cc(S(=O)(=O)N2CCOCC2)cc1C(=O)Nc1ccccc1,0,nt,nt,115
CCNc1nc(NC(C)(C)C)nc(N2CCCCC2)n1,5,82,58,108
O=C(Nc1ccc(-c2ccccc2)cc1)c1ccccn1,-22,90,85,98&97
Cc1ccc(NC(=O)CSc2ncc3c(n2)-c2ccc(Cl)cc2N(C)S3(=O)=O)cc1F,nt,91,89,103
CC(C)CNC(=O)c1cc(-c2ccccc2O)no1,nt,92,77,98
N#CC1(C#N)C(C#N)(C#N)C12CCCCC2,-32,36,-1,101
CCOc1ccccc1N(C)C(=O)c1cc(S(=O)(=O)NCCc2ccc(Cl)cc2)ccc1F,nt,89,88,108
COc1ccc(NC(=O)C(NC(=O)/C=C\c2ccc3c(c2)OCO3)c2ccc(OC)cc2)cc1 (stereo not drawn),-5,122,76,103
O=c1c2sc3ccccc3c2n(Cc2cccc(C(F)(F)F)c2)c(=O)n1Cc1ccccc1,7,93,98,104
Cc1ccc(Cl)cc1N1CCN(CCNC(=O)Cn2nc(C)n3c(cc4sccc43)c2=O)CC1,1,89,90,102

# Some of the entries so far, as tab-separated lines:
Compound	HCMV UL50-53 inh	Sa growth 42C	Sa growth 42C second temp	GIV Gai3 FP
CCc1cc(C(=O)OC)c(N)s1	0	97	90	102
Cc1cc(N2CCN(C)CC2)nc2ccc(NC(=O)Nc3ccc(F)cc3)cc12	0	101	88	100&108

# The listing picks up; the 4 compounds before the break are reprinted first.
SMILES,HCMV UL50-53 inh,Sa growth 42C,Sa growth 42C second temp,GIV Gai3 FP
CCOc1ccccc1N(C)C(=O)c1cc(S(=O)(=O)NCCc2ccc(Cl)cc2)ccc1F,nt,89,88,108
COc1ccc(NC(=O)C(NC(=O)/C=C\c2ccc3c(c2)OCO3)c2ccc(OC)cc2)cc1 (stereo not drawn),-5,122,76,103
O=c1c2sc3ccccc3c2n(Cc2cccc(C(F)(F)F)c2)c(=O)n1Cc1ccccc1,7,93,98,104
Cc1ccc(Cl)cc1N1CCN(CCNC(=O)Cn2nc(C)n3c(cc4sccc43)c2=O)CC1,1,89,90,102
COc1cc(C2NC(C(=O)O)CS2)ccc1OCc1ccc(Cl)cc1 (stereo not drawn),-4,nt,nt,100
CN1c2ccccc2Sc2ccccc21,14,98,80,104
COc1ccc(OCC(=O)Nc2ccc(-c3nc4cc(C)cc(C)c4o3)cc2)cc1,-16,106,98,101
CSc1scc2c1-c1nn(C(=O)c3ccc(Cl)cc3)cc1CC2,-22,103,88,104
O=C(CCCN1C(=O)CSc2ncccc21)NCc1ccccc1Br,12,nt,nt,104
CCOc1ccc(-c2cc(NC(=O)Cn3ncc4c3-c3ccccc3OC4)on2)cc1,-8,nt,nt,97
Cc1ccc(C(=O)NCCN(C)C)cc1NC1=NC2CS(=O)(=O)CC2S1 (stereo not drawn),nt,91,85,97
O=C(CSc1nnc(Cc2cc(=O)[nH]c(=O)[nH]2)n1-c1ccccc1)NC1CCCC1,-6,126,91,101
O=c1nc2scc(-c3ccccc3)n2c2ccccc12,2,77,94,nt
CCOC(=O)C1=C(C)N=c2s/c(=C\c3ccc(O)c(OCC)c3)c(=O)n2C1c1ccc2c(c1)OCO2 (stereo not drawn),-1,nt,nt,108
CCCCC1(CC(=O)N2CCOCC2)C(=O)N(c2ccccc2)N(c2ccccc2)C1=O,-16,88,89,nt
Cn1nc(NC(=O)Cn2ccc(C(F)(F)F)n2)c2ccccc21,-12,97,102,106
COc1ccc(OCC(=O)N2CCN(C(=O)COc3ccccc3)CC2)cc1,-33,83,82,103
Cc1ccc(NC(=O)CSc2nncn3c2cc2sccc23)cc1F,nt,105,82,109
Cc1cccc(C2Nc3ccccc3C(=O)N2CCc2ccccc2)n1 (stereo not drawn),-3,82,98,nt
COc1ccc(S(=O)(=O)Nc2cccc(-c3ccc(N4CCCCC4)nn3)c2)cc1F,nt,131,100,108
O=C(Cn1nc2n(CCc3ccccc3)c(=O)c3ccccc3n2c1=O)NCc1ccccc1Cl,-4,nt,nt,103
CCN(CC)C(=O)CSC1=Nc2ccccc2C2=NC(Cc3c[nH]c4ccccc34)C(=O)N12 (stereo not drawn),nt,121,80,136
Cc1cc2c(cc1S(=O)(=O)N1CCCC(C(=O)N3CCCC3)C1)OC(C)C(=O)N2 (stereo not drawn),1,nt,nt,104
O=C(COC(=O)C1CC1)Nc1cc(Cl)cc(Cl)c1,-30,113,88,nt
CCn1c2ccccc2c2nn(C)c(=N)nc21,nt,85,79,105
Cc1ccc(C)c(NC(=O)Nc2ccccc2OCc2cc(=O)n3c(ncn3C(C)C)n2)c1,14,nt,nt,104
CCOCCOC(=O)C1=C(C)NC2=C(C(=O)CC(c3ccc(OC)cc3)C2)C1c1cc2c(cc1Br)OCO2 (stereo not drawn),-9,nt,nt,102
CSc1cccc(NC(=O)Cn2nc(C)c(Oc3ccccc3)c2C)c1,-2,115,95,106
COc1ccc(N2CC(NC(=O)C3CCCC3)CC2=O)cc1OC (stereo not drawn),nt,98,99,100&104

# Carrying on:
SMILES,HCMV UL50-53 inh,Sa growth 42C,Sa growth 42C second temp,GIV Gai3 FP
O=C(OCCN1C(=O)c2cccc3c(N4CCOCC4)ccc(c23)C1=O)c1ccc(Cl)cc1Cl,-14,nt,nt,104
CN1C(=O)CSc2ccc(NC(=O)N3CCOCC3)cc21,nt,94,87,99
CC1=NOC(O)(C(F)(F)F)C1 (stereo not drawn),-9,73,83,nt
Cc1cc(OC(C)C(=O)Nc2cccc(-c3nc4ccccc4o3)c2)cc(C)c1Cl (stereo not drawn),-5,119,70,126
CC(C)Cc1ccc(S(=O)(=O)Nc2cc3c(cc2Oc2ccccc2)n(C)c(=O)c(=O)n3C)cc1,8,nt,nt,102
CC(=O)Nc1ccc(-c2nc3ccc(NC(C)=O)cc3s2)cc1,-38,99,88,nt
CCn1c(=O)c(C(=O)CC#N)c(N)n(Cc2ccccc2)c1=O,-20,74,93,nt
CCCCC(=O)Nc1cccc(N2CCn3c(nc4cc(Cl)ccc43)C2)c1,7,nt,nt,97
CCOC(=O)C1CCN(C(=O)c2cccc(Cl)c2)CC1,7,93,79,105
